High-throughput results: PubChem BioAssay, ICCB-Longwood Screening Facility, Harvard Medical School
Choline anaer gr: blocks anaerobic gram-negative growth on choline; Gram-negative bacterium anaerobic choline minimal medium, absorbance growth; hits give low values; many inactives read as strong as hits in the columns shown; calls only; 55,000 tested, 0.2% active;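 active = growth z-score on choline under -2 at 7 or 20 h with little or no fall on glycerol, limits in tiers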;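 note: stock transfer was 300 nL into about 50 µL; the organism is E. coli; final concentration not given here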
Choline anaer gr early: second read-out of Choline anaer gr, no call of its own (marks repeat the call); z-score; measured here: choline growth z-score, timepoint 1;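 score of optical density at 7 h as mean of two plates; lower means less growth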
The depositor's hits bear a star; i = inactive; & = joins results of further samples. These rows are one share of the data (hit frequency here may not be typical).

SMILES | Choline anaer gr | Choline anaer gr early
O=C(C1CC(=O)N(c2cccc(F)c2)C1)N1CCN(c2ncnc3c2nnn3-c2ccccc2)CC1 (stereo unspecified) | i | 1.3
COc1ccc(CCC(=O)N2CCc3c(c(C(=O)N4CCCC(C(=O)NC5CC5)C4)nn3C)C2)cc1 (stereo unspecified) | i | 0
CC1CCCN(C(=O)Cn2cnc3c(nc4n3CCCCC4)c2=O)C1 (stereo unspecified) | i | -1.9
Cn1cnc(S(=O)(=O)N2CCC(C(=O)NCCC3=CCCCC3)CC2)c1 | i | 1.2
CC(C)Cc1cnc2c(c1SCC(=O)N1CCC(C)CC1)c(=O)n(C)c(=O)n2C | i | 0.37
COC(=O)CSc1nnc2n1CCN2c1ccc(OC)cc1 | i | -1.3
Cc1cccc(OCc2nc(C)c(C(=O)NCC(C)C)s2)c1 | i | 0.33
Cc1cc(F)ccc1NC(=O)C(C)n1c2ccccc2c2nc(=O)cc(C)n21 (stereo unspecified) | i | -0.64
O=C(NC1CCCCC1)N1CCC(c2nc(-c3ccc(F)cc3)no2)CC1 | i | -0.61
Cc1cccc(NC(=O)c2ccc(CNc3c(NC4CCCC4)c(=O)c3=O)cc2)c1 | i | 1.3
COc1cccc(-c2nc3n(c2C(=O)Nc2nccs2)CCS3(=O)=O)c1 | i | 0.1
CC(=O)Nc1ccc(NC(=O)CCn2c(C(F)(F)F)nc3cc(S(=O)(=O)N(C)C)ccc32)cc1 | i | 1.2
COc1ccc(N(Cc2nc3nc(C)cc(=O)n3[nH]2)S(=O)(=O)c2ccccc2)cc1 | i | 0.52
COCCNC(=O)C1(C)Cn2cnc(C(=O)OC)c2C(=O)N1C1CC1 (stereo unspecified) | i | 0.99
CCCCc1ccc(NC(=O)c2cc3c(=O)n4ccccc4nc3s2)cc1 | i | -0.76
COc1ccccc1Nc1nc(-c2nnn(-c3ccccc3)c2C)ns1 | i | 0.34
Cc1cc(NC(=O)CCc2nc(CSc3nc4ccccc4s3)no2)no1 | i | -0.1
COC(=O)c1cc(C(=O)OC)cc(N2C(=O)c3c(C)nc4ccccc4c3C2=O)c1 | i | -0.67
O=C(O)CCc1ccc(-c2ccccc2)n1-c1ccc(C(=O)O)cc1 | i | -0.71
CCc1nnc(NC(=O)c2cc(=O)c3cc(Br)ccc3o2)s1 | i | -0.45
Cc1cccc(N2C(=O)c3nccnc3C2=O)c1C | i | -1.8
COc1cccc(C(=O)Nc2ccccc2-c2nc(-c3cccc(C)c3)no2)c1 | i | 0.91
Cc1nn(C)c(C)c1CNS(=O)(=O)Cc1ccccc1 | i | -0.45
CC1CCN(c2ncc(S(=O)(=O)c3ccc(C(C)C)cc3)c(N)n2)CC1 | i | -0.45
O=C(NCCc1ccc(Cl)cc1)c1ccc(-n2nc(OCc3ccc(Cl)cc3)ccc2=O)cc1 | i | 0.07
CN(C)c1ccc(CNC(=O)C2CCCN(c3ccncc3)C2)cc1 (stereo unspecified) | i | -0.52
C[C@H](NC(=O)Cc1cc(F)cc(F)c1)C(=O)N[C@H](C(=O)OC(C)(C)C)c1ccccc1 | i | 0.51
O=C1CCS(=O)(=O)N1c1ccc(S(=O)(=O)NCC2CCCO2)cc1 (stereo unspecified) | i | -0.04
Cn1c(SCc2nc(-c3ccncc3)no2)nc2ccsc2c1=O | i | -0.41
O=C(c1cccc(Cl)c1F)N1CCN(Cc2cccc(Nc3nccs3)n2)CC1 | i | 0.58
O=C(Nc1ccccc1)N(CC1CCCO1)C1CCS(=O)(=O)C1 (stereo unspecified) | i | 0.61
CC(C)c1cc(C2CCCN2C(=O)c2c(Br)cnn2C)on1 (stereo unspecified) | i | -1.3
Cc1ccc(-c2nn(-c3ccccc3)cc2CCC(=O)NCc2cccnc2)cc1 | i | 0.59
Cc1[nH]c(C(=O)N2CCC(CC(=O)N3CCOCC3)CC2)c(C)c1C(=O)OC(C)C | i | 0.56
C#C[C@]1(O)CC[C@H]2[C@@H]3CCC4=Cc5oncc5CC4(C)[C@H]3CCC21C (stereo partly specified) | i | 0.78
C=CCNc1ncnc2c1cnn2-c1ccc(F)cc1 | i | -0.22
NC[C@@H]1O[C@H](O[C@H]2[C@@H](O)[C@H](O[C@@H]3[C@@H](O)[C@H](N)C[C@H](N)[C@H]3O[C@H]3O[C@H](CN)[C@@H](O)[C@H](O)[C@H]3N)O[C@@H]2CO)[C@H](N)[C@@H](O)[C@@H]1O | i | -1.5&0.5
Cc1ccc(Cl)cc1NC(=O)C1CCN(c2ncnc3oc(C)c(C)c23)CC1 | i | -0.09
CS(=O)(=O)c1nc2ccc(NS(=O)(=O)c3ccc4c(c3)OCCO4)cc2s1 | i | -1
O=C(COc1ccccc1)N1CCN(C(=O)c2cc3cc(Br)ccc3[nH]2)CC1 | i | 1.3
NS(=O)(=O)c1ccc(CCNC(=O)c2cccc(-n3nnc4cccnc43)c2)cc1 | i | 1.4
O=C(Cn1nc(N2CCN(c3ccccc3)CC2)ccc1=O)NCc1ccccn1 | i | -0.37
Cc1cc(=O)[nH]c(NCc2ccc(F)cc2)n1 | i | -0.88
Cc1ccc(N2C(=O)c3oc4ccccc4c(=O)c3C2c2cccnc2)nc1 (stereo unspecified) | i | 0.26
CCN(CCN(C)C)c1ncc(C(=O)O)cc1NS(=O)(=O)c1ccc(F)c(F)c1 | i | -0.53
CCCCC[C@H](O)/C=C/[C@@H]1[C@@H](C/C=C\CCCC(=O)NCCO)[C@@H](O)C[C@@H]1O | i | 0.53
COc1ccc(CN2CCCC2c2c(C)noc2C)cc1COCC(F)(F)F (stereo unspecified) | i | 0.74
COc1ccc(S(=O)(=O)N2CCN(Cc3noc(CCC(=O)N(C)Cc4ccccc4)n3)CC2)cc1 | i | 0.56
CCOc1ccc(S(=O)(=O)NCc2ccc3c(c2)CCN3C(=O)c2ccc(F)cc2)cc1 | i | 0.27
COc1cc(C)c(/C=C/C(C)=C/C=C/C(C)=C/C(=O)O)c(C)c1C | i | 0.5
CCc1cc(-c2csc(S(=O)(=O)N3CCN(c4cccc(Cl)c4)CC3)c2)on1 | i | 0.91
COC(=O)c1cc2n(n1)CC(C)(C(=O)NC1CCC(C)CC1)N(c1cc(OC)cc(OC)c1)C2=O (stereo unspecified) | i | -1.1
O=S(=O)(c1ccc(F)cc1)N1CCn2cccc2C1c1ccc(F)cc1 (stereo unspecified) | i | -0.07
CC(C)c1ccc(NC(=O)c2ccc(-n3nc(OCc4ccc(Cl)cc4)ccc3=O)cc2)cc1 | i | 1.6
Cc1cc(NC(=O)C2CCCN(S(=O)(=O)c3cccc4cccnc34)C2)ccc1Br (stereo unspecified) | i | 0.25
O=C1OC(OC(=O)c2cccnc2Nc2cccc(C(F)(F)F)c2)c2ccccc21 (stereo unspecified) | i | 0.39
Cc1nn(-c2nc3ccccc3o2)c2c1C(c1ccccc1)CC(=O)N2 (stereo unspecified) | i | -1.7
Cn1c(=O)n(C)c2cc(S(=O)(=O)CC(=O)NC3CC3)ccc21 | i | -0.38
CC1(C(=O)NCc2cccc(F)c2)CCCN(S(=O)(=O)c2ccc(C(C)(C)C)cc2)C1 (stereo unspecified) | i | 2.3
Cc1cc(C(=O)N2C(C)CCCC2C)on1 (stereo unspecified) | i | 0.45

Next compounds follow:
SMILES | Choline anaer gr | Choline anaer gr early
Cc1cccc(CSc2nnc3n2CCN3c2ccccc2)c1 | i | 0.25
O=C(O)c1ccc(N2CCN(CC(=O)N3CCCC3)CC2)c(NC(=O)c2ccccc2Cl)c1 | i | 1.3
CC(C)OCCCn1c(=O)c2cc(Cl)ccc2n2c(=S)[nH]nc12 | i | 0.38
CCN(CC)C(=O)c1ccc(-c2nc3cc(NS(=O)(=O)c4ccc(F)c(C)c4)ccc3n2C)cc1 | i | 0.95
O=C(c1ccc2ccnc(N3CCN(c4ccccc4)CC3)c2c1)N1CCN(c2ccccc2)CC1 | i | 0.4
O=C(Nc1cnc(N2CCN(c3ccccc3)CC2)c(C(=O)O)c1)c1cccc(Cl)c1 | i | 0.76
Cc1cc(OC(C)C(=O)Nc2onc3c2CCCC3)ccc1Cl (stereo unspecified) | i | 0.49
CC(=O)Nc1ccc(Nc2cc(N(C)C)nc(C)n2)cc1 | i | 0.2
COc1cc(NC(=O)CSc2nc3nc[nH]c3c(=O)[nH]2)cc(OC)c1 | i | 0.19
O=c1[nH]c2cc3c(cc2c(=O)n1CCc1nc(-c2ccccn2)no1)OCO3 | i | 0.05
Cn1cc2c(N3CCSCC3)nc(C(=O)NCc3cccs3)nc2n1 | i | 0.04
Cc1ccc(-c2noc(C3CC3)n2)cc1S(=O)(=O)N1CCC(C(=O)N2CCOCC2)CC1 | i | -0.28
Cc1ccc(-c2ccc(NCCC3=CCCCC3)nn2)cc1S(=O)(=O)N1CCCCC1 | i | 0.93
Cc1cc(NC(=O)c2ccc3c(c2)OCCO3)cc(-c2nc3ccccc3o2)c1O | i | -0.7
COc1cccc(S(=O)(=O)Nc2ccc(C3(C(=O)NCCC(C)C)CCC3)cc2)c1 | i | 1
COc1ccc2[nH]cc(CCNC(=O)c3ccc(N4CCCC4)c(S(=O)(=O)N4CCCC4)c3)c2c1 | i | 0.24
Cc1ccc(NS(=O)(=O)c2cn(C)cn2)cc1Cl | i | 0.27
CCC(Sc1nc2ncccc2[nH]1)C(=O)Nc1ccc(Br)cc1 (stereo unspecified) | i | 0.47
COc1ccc(NS(=O)(=O)c2cc(-c3ccno3)oc2C)cc1OC | i | 0.22
CN1C(=O)C2CCCCN2c2ccc(C(=O)NCc3ccc4c(c3)OCO4)cc21 (stereo unspecified) | i | -0.12

An excerpt from above in order of molar mass, descending:
SMILES | Choline anaer gr | Choline anaer gr early
CC(C)c1ccc(NC(=O)c2ccc(-n3nc(OCc4ccc(Cl)cc4)ccc3=O)cc2)cc1 | i | 1.6
Cc1ccc(-c2noc(C3CC3)n2)cc1S(=O)(=O)N1CCC(C(=O)N2CCOCC2)CC1 | i | -0.28
CCN(CCN(C)C)c1ncc(C(=O)O)cc1NS(=O)(=O)c1ccc(F)c(F)c1 | i | -0.53
Cc1[nH]c(C(=O)N2CCC(CC(=O)N3CCOCC3)CC2)c(C)c1C(=O)OC(C)C | i | 0.56
Cc1cc(NC(=O)c2ccc3c(c2)OCCO3)cc(-c2nc3ccccc3o2)c1O | i | -0.7
Cc1ccc(N2C(=O)c3oc4ccccc4c(=O)c3C2c2cccnc2)nc1 (stereo unspecified) | i | 0.26
Cc1cccc(N2C(=O)c3nccnc3C2=O)c1C | i | -1.8

Reformatted with tabs: entries from further up
Molecule	Choline anaer gr	Choline anaer gr early
O=c1[nH]c2cc3c(cc2c(=O)n1CCc1nc(-c2ccccn2)no1)OCO3	i	0.05
Cn1cc2c(N3CCSCC3)nc(C(=O)NCc3cccs3)nc2n1	i	0.04

(continued)
SMILES | Choline anaer gr | Choline anaer gr early
CCOc1ccc(NC(=O)CN2CCCN(Cc3ccc(F)cc3)S2(=O)=O)cc1 | i | 0.41
NS(=O)(=O)c1ccc(NC(=O)c2ccc(=O)n(Cc3ccccc3Cl)c2)cc1 | i | -1.3
CCOc1ccc(Br)cc1C1N2CC3(C)CN1CC(C)(C2)C3O (stereo unspecified) | i | 1.1
CCn1nc(C)c2c1c(=O)n(CCc1ccccc1)c(=O)n2CC(=O)N1CCC(C)CC1 | i | -1.9
CCOC(=O)C1CCN(C(=O)CCCn2nc(C)c3sc4ccccc4c3c2=O)CC1 | i | 0.46
Fc1cccc(-c2noc(-c3cc(-c4cccc(Br)c4)n[nH]3)n2)c1 | i | -1.2
COc1cc(NC(=O)C2=C(C)OCCS2)c(Cl)cc1C(=O)NCC1CCCO1 (stereo unspecified) | i | 0.32
CC(C)CN(CCNC(=O)C1CCCN(S(=O)(=O)N2CCOCC2)C1)CC(C)C (stereo unspecified) | i | -1
CC1(C)Cc2ccccc2C(C(=O)c2ccccc2)=N1 | i | -0.45
Cc1ccc(N2CCN(CC(O)c3ccc4c(c3)OCO4)CC2)cc1 (stereo unspecified) | i | -0.89
CCC1Oc2ccc(S(=O)(=O)N3CCN(C(=O)c4cncc(Br)c4)CC3)cc2NC1=O (stereo unspecified) | i | -0.26
CC1/C=C/C=C/C=C/C=C/C=C/C=C/C=C/C(O[C@@H]2O[C@H](C)[C@H](O)[C@@H](O)[C@@H]2N)CC(O)C(C(=O)O)C(O)CC(=O)CC(O)CC(O)CC(O)CC(=O)CCCC(=O)CC(=O)OC1C(C)CC(C)C(O)CC(=O)c1ccc(N)cc1 (stereo partly specified) | i | 0.71
CC(=O)Nc1ccc2nc(SCCOc3ccccc3)sc2c1 | i | -1.2
CN(Cc1ccccc1)C(=O)c1nc(-c2ccccc2)n(-c2ccccc2)n1 | i | 0.97
COc1cccc(N2CCN(C(c3ccccc3)c3nnc(-c4ccc(Cl)cc4)o3)CC2)c1 (stereo unspecified) | i | -0.86
CCCCN(CC)CCCNC(=O)C1=C(C)C(=O)OC12CCCCC2 | i | -0.65
CN1CCN(CCNC(=O)CN2C(=O)CSc3ccc(C(=O)N4CCCC4)cc32)CC1 | i | 0.78
CC(C)NC(=O)Cn1c(=O)n(-c2ccc(CC(=O)NC3CCCC3)cc2)c(=O)c2ccccc21 | i | -0.33
COc1cccc(OC(=O)c2cc3c(C)nn(-c4ccccc4)c3s2)c1 | i | 1.4
COc1ccc(Br)c(C(=O)Nc2c(C)nc3sccn3c2=O)c1 | i | 0.48
COc1ccc(NC(=O)CCCn2nc(-n3cccc3)c3c(C)cc(C)nc32)cc1 | i | 0

Some of the entries so far, with values under each structure:
Screens in order: Choline anaer gr	Choline anaer gr early
CCCCN(CC)CCCNC(=O)C1=C(C)C(=O)OC12CCCCC2
    i	-0.65
CN1CCN(CCNC(=O)CN2C(=O)CSc3ccc(C(=O)N4CCCC4)cc32)CC1
    i	0.78
CC(C)NC(=O)Cn1c(=O)n(-c2ccc(CC(=O)NC3CCCC3)cc2)c(=O)c2ccccc21
    i	-0.33
COc1cccc(OC(=O)c2cc3c(C)nn(-c4ccccc4)c3s2)c1
    i	1.4
